High-throughput results as filed in PubChem BioAssay.
CapD inh: Bacillus anthracis CapD inhibitors, primary screen, biochemical, fluorescence intensity | CapD gamma-glutamyltranspeptidase (Bacillus anthracis Ames Ancestor) | purified CapD enzyme, fluorescence intensity read-out; stronger effect = lower value; some hits fall short of the stated cut | z-score (concentration not given with the values) | 140,000 compounds, 0.23% hits;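 active means z-score under -4 in either of two replicates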;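 further: stock transfer was 100 nL into about 40 µL; score is relative to mean and spread of the plate; one replicate is shown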
AID504770: growth inhibition of E. coli YBA685, primary screen, V. cholerae RctB inhibitors | AID 504770, 2011 | z-score (concentration not given with the values) | 130,000 compounds, 0.27% hits | E. coli YBA685 rctB-dependent plasmid, OD600 growth, 3 h; stronger effect = lower value;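 active means z-score under -2 on both plates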;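 further: wells of about 30 µL received 100 nL stock; score is relative to mean and SD of the test wells; the first replicate is given; strong numbers were not always called active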
The depositor's hits bear a star; . = not tested or not shown; & = joins results of further samples. Only part of the results is shown; the hit share may differ from the screen's.

structure,CapD inh,AID504770
N#Cc1c(Cl)cccc1Oc1ccc(S(=O)(=O)N2CCOCC2)cc1,-0.435,-0.35
COc1ccc2c(c1)C(=O)C(C1(O)C(=O)Nc3ccccc31)CC2 (stereo not drawn),1.9,0.5
CC1C(=O)N2CCCc3cc(NC(=O)c4ccccc4)cc1c32 (stereo not drawn),.,-0.85
O=C1CCC2(C(=O)OCCCn3c(=O)[nH]c4ccccc43)Sc3ccccc3N12 (stereo not drawn),.,-0.1
Cc1ccc(C(C)N2CCN(S(=O)(=O)c3ccc4c(c3)OCCO4)CC2)cc1C (stereo not drawn),.,-0.05
CN(C)Cc1c[nH]c2ccccc12,0.23&-0.94,-0.8
COc1ccccc1OCCn1c(SCC(N)=O)nc2ccccc21,-0.23,.
OCc1cnn(-c2ccccc2)c1-n1cccc1,-0.345,-0.6
Cc1nc(C(=O)Nc2ccc(F)cc2)nn1-c1ccc(Cl)cc1Cl,0.03,.
CCOC(=O)c1cnc2nc[nH]n2c1=O,-0.44&-0.16,-0.3&-0.75
O=C1CCN(C(=O)CCC(=O)N2CCc3ccccc3C2)CCN1,-0.08,.
CNC(=O)NC(=O)C(Sc1nnc(SC)s1)c1ccccc1 (stereo not drawn),.,-0.25
COc1ccc(-c2nnc3sc(CN4CCc5ccccc54)cn23)cc1,.,-0.25
CCC(Sc1nc2ccccc2c(=O)n1NC(=O)Cc1ccccc1)C(=O)N1CCOCC1 (stereo not drawn),-0.175,.
O=C(c1ccc2c(c1)OCCO2)C1CCCCC1,.,-0.6
CSc1nc(N)nn1CCC#N,0.705,-0.9
COC(Cn1c(-c2ccc(Cl)cc2)n[nH]c1=S)OC,-0.8,1.8
CN(CC(=O)Nc1c(Cl)cccc1Cl)CC(=O)N1CCc2ccccc21,.,0.1
Cc1ccc(/C=C/[N+](=O)[O-])cc1,-1.12,.
Cc1cc(N2CCCN(C)CC2)nc2cc(Cl)ccc12,47.8,-0.95
COc1ccc(CC2CCc3ncc(C)cc3C2)cc1 (stereo not drawn),1.33,-1
NS(=O)(=O)c1ccc(CCNC(=O)c2ccc(/C=N/O)cc2)cc1,.,-1.05
COc1ccc(CN(C)S(=O)(=O)c2cn(C)c(=O)n(C)c2=O)cc1OC,.,-1.3
CC(=O)N(C(C)=O)c1ccccc1-c1ccccc1,-0.005,-0.45
Cc1csc2ncnc(Sc3ccc(Cl)cc3)c12,-0.85,-1.55
CCC(C)COc1ccc(O)cc1 (stereo not drawn),-0.12,1
COc1ccccc1-n1c(CNC(=O)c2ccccc2)n[nH]c1=S,.,-0.2
CC(C)CNc1oc(COc2ccccc2F)nc1C#N,-0.86,1.55
OC(COc1cccc2cccnc12)Cn1c2ccccc2c2ccccc21 (stereo not drawn),-0.505,-0.45
COc1cccc(NC(=O)N2CCC(C(=O)O)CC2)c1,-0.22,0.15
Cc1oc(-c2ccccc2Cl)nc1CSCC(=O)NC1CCCC1,29.8,-0.9
CCC1CCCCN1C(=O)COC(=O)c1cncc(Br)c1 (stereo not drawn),0.055,0.5
COc1ccc(C(F)(F)F)cc1NC(C)=O,0.47,0
O=C(O)c1c[nH]c2ccc(S(=O)(=O)N3CCC(O)CC3)cc2c1=O,3.66,.
CC(=O)N(Cc1ccc(C(C)C)cc1)c1ccc2oc(-c3ccccc3)nc2c1,-0.59,-0.1
COc1ccccc1OCC(=O)Nc1oc(-c2ccccc2)c(-c2ccccc2)c1C#N,3.43,-0.65
CCOC(=O)C1=C(C)NC2=C(C(=O)c3ccccc32)C1c1cccnc1 (stereo not drawn),-0.31,-0.8
COc1ccc(N2CCN(S(=O)(=O)c3ccc(C)c(Cl)c3)CC2)cc1,-0.47,.
CCCNC(=O)C(Sc1ccccc1)c1ccccc1 (stereo not drawn),-0.185,-0.95
N#Cc1c(N)nc2c(c1N)CC(=O)N2c1ccccc1,.,0.5
Cc1ccc(Nc2nc(C(=O)N3CCCCC3)cs2)cc1,0.095,0.5
CC(C)OC(=O)C(N)c1ccccc1 (stereo not drawn),.,0.2
Brc1cccc(-c2nc(-c3ccccc3)c(-c3ccc(Oc4ccccc4)cc3)[nH]2)c1,-0.31,.
COc1cc(OC)c(C(=O)N2CCN(c3ccccc3F)CC2)cc1OC,0.5,-0.15
CSCCC(C(=O)O)N1C(=O)/C(=C/c2ccc(Cl)cc2Cl)SC1=S (stereo not drawn),0.115,.
CCCCN1COc2ccc(CCNC(=O)c3ccc(Cl)cc3)cc2C1,-0.16,-0.05
Cc1ccc(-c2nc3ncccc3o2)cc1NC(=O)C(C)(C)Oc1ccc(Cl)cc1,1.46,1.35
O=C(NC1CCCCCCC1)c1cccnc1SCCC(F)=C(F)F,0.14,.

Continued, starting with the last three of the part before.
structure,CapD inh,AID504770
CCCCN1COc2ccc(CCNC(=O)c3ccc(Cl)cc3)cc2C1,-0.16,-0.05
Cc1ccc(-c2nc3ncccc3o2)cc1NC(=O)C(C)(C)Oc1ccc(Cl)cc1,1.46,1.35
O=C(NC1CCCCCCC1)c1cccnc1SCCC(F)=C(F)F,0.14,.
C#CCNc1c2c(nc3nnnn13)CCCC2,.,0.35
N#CCOC(=O)c1cccc(I)c1,.,-0.45
C=CCN1CCN(C(=O)c2cc(OC)c(OC)cc2OC)CC1,0.625,-0.95
CCOc1cc(C=C2C(=O)NC(=O)NC2=O)cc(Br)c1OCCOc1ccccc1,-0.685,.
COC(=O)C1=CN(Cc2ccc(OC)cc2)C=C(C(=O)OC)C1c1ccc(OCc2ccccc2)cc1,22.3,.
N#Cc1ccc(OCC(=O)OCC(N)=O)cc1,.,-0.55
Cn1c(-c2ccccc2)c(C(=O)COC(=O)[C@@H]2CCCN2C(=O)c2cccs2)c2ccccc21,.,-0.4
O=C(Cc1ccccc1)Nc1ccc2c(c1)OCO2,.,0.5
O=C(O)CCN1C(=O)S/C(=C\c2cccs2)C1=O,.,0.25
Cc1ccc(OCC(=O)Nc2cc(-c3nn(C)c(=O)c4ccccc34)ccc2N2CCOCC2)cc1,-0.445,-0.3
OC(CCl)c1ccc(-n2cncn2)cc1 (stereo not drawn),-0.32,0.9
CCOC(=O)c1ccc(-c2ccc(-c3nc4ccc(S(N)(=O)=O)cc4[nH]3)o2)cc1,.,0.05
CC(c1ccccc1)N1C(=O)OC(C)(C)C1(C)O (stereo not drawn),-0.915,-1.15
CN1C(=O)N(C)C2(c3ccccc3)Nn3c(s/c(=C\c4cc5c(cc4Br)OCO5)c3=O)=NC12c1ccccc1 (stereo not drawn),-0.665,.
c1ccc(C2Nc3ccccc3-c3nc4ccccc4n32)cc1 (stereo not drawn),81.9,.
CC(C)n1c(C2CC(=O)N(c3ccccc3)C2)nc2ccccc21 (stereo not drawn),0.58,0.8
Cc1ccc(C(=O)CSc2nnc(-c3ccc4c(=O)n5c(nc4c3)CCCCC5)o2)s1,.,-0.1
O=C(N/C(=C\c1ccc2c(c1)OCO2)C(=O)N1CCOCC1)c1ccccc1Cl,-0.195,-0.55
COc1ccc(NC(=O)c2ccccc2N(C)S(C)(=O)=O)cc1,-0.09,0
COC(=O)CSc1cc(C(=O)c2nccn2C)c2ccccc2n1,.,-0.35
N#Cc1sccc1CSc1ccc(Cl)cc1,0.775,0.8
Nn1c(SC2CCOC2=O)nnc1-c1cccnc1 (stereo not drawn),.,1.7
CN(C)CCCN1c2ccccc2CCc2ccc(Cl)cc21,-0.53&-0.185,.
COc1ccc2c(CN(C)CC(=O)Nc3ccc(N4CCOCC4)cc3)cc(=O)oc2c1,.,-0.25
N#C/C(=C\Nc1cccc(Cl)c1)c1nc2ccccc2[nH]1,1.91,3.8
CC(C)(C)c1cc2nc(C(F)(F)F)cc(N/N=C/c3ccc(C(F)(F)F)cc3)n2n1,6.18,.
CCC(=O)c1ccc(OCC(=O)N2CCN(S(=O)(=O)c3cccc(C(F)(F)F)c3)CC2)cc1,.,-0.35
CC1CCC(n2cccc2)CC1 (stereo not drawn),.,0
C=CCOC(=O)C1=C(C)NC(S)=C(C#N)C1c1cccs1 (stereo not drawn),-0.265,.
CCc1nc2ccccc2n1CC(C)C,-0.04,0.3
C=CCNc1nc(-c2ccccc2)cs1,.,-0.15
COc1ccc(N=C2SC(C(=O)Nc3ccccc3)CC(=O)N2CCc2ccc(OC)c(OC)c2)cc1 (stereo not drawn),0.15,.

At a glance, some entries already given.
structure,CapD inh,AID504770
COc1ccc2c(CN(C)CC(=O)Nc3ccc(N4CCOCC4)cc3)cc(=O)oc2c1,.,-0.25
N#C/C(=C\Nc1cccc(Cl)c1)c1nc2ccccc2[nH]1,1.91,3.8
CC(C)(C)c1cc2nc(C(F)(F)F)cc(N/N=C/c3ccc(C(F)(F)F)cc3)n2n1,6.18,.
CCC(=O)c1ccc(OCC(=O)N2CCN(S(=O)(=O)c3cccc(C(F)(F)F)c3)CC2)cc1,.,-0.35
CC1CCC(n2cccc2)CC1 (stereo not drawn),.,0
C=CCOC(=O)C1=C(C)NC(S)=C(C#N)C1c1cccs1 (stereo not drawn),-0.265,.

(listing goes on)
structure,CapD inh,AID504770
COc1ccc(OC)c(CNC(=O)Cn2ncc3c(=O)oc4ccc(C)cc4c32)c1,-0.1,1.25
COc1ccc(-c2c(NC(=O)C(C)C)n(C)c3ccccc3c2=O)cc1,.,-0.4
O=C(CNc1ccccc1)c1ccc(Cl)cc1,-0.47,-1.2
CCCN1C2=S=C(CSc3nc4ccccc4n3CCC)C(=O)N2c2ccccc21,.,-0.2
O=C(Cc1c(F)cccc1Cl)Nc1ccc2nc3n(c(=O)c2c1)CCCCC3,0.625,0.1
COc1ccc(C(=O)c2sc3nc(C)cc(C(F)(F)F)c3c2N)cc1OC,0.225,.
CC1CCN(S(=O)(=O)c2ccc(C(=O)Nc3nc4c(s3)COc3ccccc3-4)cc2)CC1,-0.975,-0.45
CCCNc1nc(SCc2ccc(Cl)cc2)nnc1C,-0.36,-0.7
O=C(CN1C(=O)c2ccccc2C1=O)c1ccc(OC(F)F)cc1,-0.75,0.2
COCCNC(=O)CSc1nc2c(sc(=S)n2-c2ccccc2C)c2nc3ccccc3n12,-0.445,.
COc1cc(C2Nc3ccc4ccccc4c3C3=C2C(=O)CC(C)(C)C3)ccc1OC(C)C (stereo not drawn),31.3,.
Cc1ccc(-c2cc3c(n2-c2ccccc2)CC(C)(C)CC3=O)cc1,0.245,-0.55
CN(C)c1ccc(-n2nc3ccc4ccccc4c3n2)cc1,.,1.7
COc1ccc(C(=O)OCC(=O)c2cc3c4c(c2)CC(=O)N4CCC3)cc1S(=O)(=O)N(C)C,.,1.25
COc1ccc2c(CCNC(=O)OCCc3cccc(F)c3)c[nH]c2c1,-0.04,.
CC1=C(C(=O)OCc2ccccc2)C(c2ccsc2)C(C#N)=C(N)O1 (stereo not drawn),-0.99,.
CCOC(=O)c1[nH]c(C)c(C(=O)OCCN2C(=O)c3ccccc3C2=O)c1C,.,-0.65
CN/C=C1\C(=O)C(C)(C)Oc2ccc3ccc(=O)oc3c21,-1.17,-0.5
CC(C)CCC(=O)NNC(=O)c1ccc2nsnc2c1,-1.41,.
CSc1nc2ccccc2n2cccc12,6.75,0
C=CCn1c(SCC(=O)NCCN2CCOCC2)nc2sc3c(c2c1=O)CCC3,0.065,.
CC1(C)Cc2c(sc3ncn4nc(-c5ccco5)nc4c23)C(C)(C)N1,3.73,0.25
NC(=O)C(C(N)=O)C1CCS(=O)(=O)C1 (stereo not drawn),0.96,0.45
CCCn1c(=O)c2[nH]c(C3CCCC3)nc2n(CCC)c1=O,-1.59,.
Cc1sc2nc(-c3ccccc3Cl)n(CC(=O)Nc3ccc(Oc4ccccc4)cc3)c(=O)c2c1C,-0.075,.
O=[N+]([O-])c1ccc(S(=O)(=O)N(CC(O)CN2CCCC2)c2ccccc2)cc1 (stereo not drawn),0.26,.
CC1(C)CC(=O)c2sc(NC(=O)CN3CCN(C(=O)c4ccco4)CC3)nc2C1,2.08,-0.4
O=C(Nc1nc(-c2ccc(Cl)cc2)cs1)c1c(O)c2cccc3c2n(c1=O)CCC3,0.495,.
O=C(NC1CCN(Cc2ccc3ccccc3c2)C1)N(Cc1ccco1)Cc1ccccc1OCc1ccccc1 (stereo not drawn),-0.445,.
Cc1ccccc1CSc1[nH]c(=O)ncc1C,.,0.6
CCOc1ccc(-c2cn3c(c2C)-c2cccn2CC3)cc1,-0.04,-0.1
CCOc1ccc2c(=O)c(Oc3ccc(OC)cc3)coc2c1,0.18,-0.65
CCOc1ccc(NC(=O)NC23CC4CC(CC(C4)C2)C3)cc1,-0.13,0.3
O=C1c2cccnc2C(=O)N1Cc1ccc(S(=O)(=O)Nc2cccnc2)cc1,-0.13,0.55
CCOC(=O)Cc1cccc[n+]1Cc1cccc(Cl)c1,0.45,.
Nc1cc(C(F)(F)F)ccc1NCCNc1ncc(C(F)(F)F)cc1Cl,-0.98,.
Cc1cc(N2CCCC2)nc(SCC(=O)c2ccccc2)n1,.,-1.1
CS(=O)(=O)c1cc(C#N)c(N2CCN(S(=O)(=O)c3ccccc3)CC2)nc1-c1ccc(Cl)cc1,0.52,.
CCC(=O)Nc1c(C(=O)OC)sc2ccccc12,.,0.2
Cc1ccc(C2=[N+]([O-])C3(CCCCC/C3=N\NC(N)=S)N(O)C2(C)C)o1 (stereo not drawn),-0.785,-0.55
